# Compound activity deposited in PubChem BioAssay by National Center for Advancing Translational Sciences (NCATS).
# VDR inhibitor: blocks the human vitamin D receptor; VDR-SRC2-3 peptide fluorescence polarization, 2 h; P11473; 400,000 tested, 0.93% active; Potency, µM, inactives show max response, negative = inhibition, actives largely listed as inhibitors; active means well fitted inhibition curve with a large enough effect; inconclusive means small, poorly fitted or top-dose-only effect, or another doubt; inactive means no such curve, though single readings can be large or run the other way; further: series mostly up to about 120 µM
# Target sequence (P11473 whole entry, looked up): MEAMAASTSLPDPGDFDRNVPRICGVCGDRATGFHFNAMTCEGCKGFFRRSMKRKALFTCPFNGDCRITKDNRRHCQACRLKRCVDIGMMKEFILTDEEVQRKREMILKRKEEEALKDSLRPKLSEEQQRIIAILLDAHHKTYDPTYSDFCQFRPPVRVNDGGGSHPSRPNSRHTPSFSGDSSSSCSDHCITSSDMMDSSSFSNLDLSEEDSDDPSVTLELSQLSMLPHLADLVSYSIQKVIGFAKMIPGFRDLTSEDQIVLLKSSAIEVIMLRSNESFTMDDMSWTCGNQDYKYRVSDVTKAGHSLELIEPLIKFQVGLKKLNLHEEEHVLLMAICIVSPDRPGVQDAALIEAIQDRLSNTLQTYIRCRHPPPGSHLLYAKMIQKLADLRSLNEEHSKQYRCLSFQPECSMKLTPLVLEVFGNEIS
#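 FP read-out; VDR + SRC2-3 coactivator peptide; 23 nl compound by pintool; 2 h RT incubation; reagents held at 4 deg C, protected from light.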
# * marks the source's active call; other numbers are inactive results; u = inconclusive; & = joins results of further samples; [ ] = remark or other dose. On the % scale 0 is the no-effect control and ±100 the full control effect; potency means the concentration at half of the fitted maximal effect. An excerpt; the hit share may differ from the screen's.
SMILES,VDR inhibitor
OC1(c2cccnc2)CC2CCC(C1)N2Cc1nnnn1Cc1ccccc1 (stereo not given),6%
CCOc1ccc(NC(=O)C2C3c4ccccc4C(c4ccccc43)C2C(=O)O)cc1 (stereo not given),-7%
CCCCC/C=C\C/C=C\CCCCCCCC(=O)NCCO,u
O=C(NC[P+](=O)O)OCc1ccccc1,-12%
CC[C@@H](CO)C1CC2NC3CC4(c5ccccc5N(C)[C@@H]24)C(O)C31 (stereo not given in full),3%
Cc1c(Br)c(=O)oc2cc(OCC(=O)N3C[C@H]4C[C@@H](C3)c3cccc(=O)n3C4)ccc12,-6%
CN[C@@H](Cc1c[nH]c2ccccc12)C(=O)O,-2%
COc1ccc(OC)c(NP(=O)(Oc2ccccc2)Oc2ccccc2)c1,-3%
COc1ccccc1C(=O)Nc1ccc2c(c1)CC1(C(=O)N(C)C(=O)N(C)C1=O)C1CCCN21 (stereo not given),-22%
CC1=C2CCC3C4CCC(=O)[C@@]4(C)CCC3[C@]2(C)CCC1=O (stereo not given in full),10%
c1cc(Cc2cnc[nH]2)ccn1,5%
CN1CCN(c2ccc(NC(=O)Oc3ccccc3)cc2)CC1,-6%
COC(=O)C(O)(c1cn(C)c2ccccc12)C(F)(F)F (stereo not given),-2%
CCC(=O)CCCCC[C@@H]1NC(=O)[C@H]2CCCCN2C(=O)[C@H]([C@@H](C)CC)NC(=O)[C@H](Cc2cn(OC)c3ccccc23)NC1=O,u
CCOC(=O)c1c(C)n(Cc2ccccc2)c2ccc(O)cc12,-14%
Cc1cccc2c1=NC(=O)/C(=C/c1c(O)[nH]c(=O)[nH]c1=O)C=2,u
CCOC(=O)Cn1cc(C(=O)c2ccccc2F)c2ccccc21,u
CC1CN(C)C(C)(C)CC1(O)c1ccccc1 (stereo not given),-17%
CN1CCN(Cc2nnc3n2-c2ccc(Cl)cc2C(c2ccccc2)=NC3)CC1,-19%
O[C@@H]1CCCC[C@@H]1N1CCC(c2ccccc2)CC1,6%
CCOc1ccc(-n2c(O)c(N=Nc3ccc([N+](=O)[O-])cc3)c(=O)[nH]c2=O)cc1,0%
Cc1c(NS(=O)(=O)c2ccccc2)ccc([N+](=O)[O-])c1Cl,-11%
C[C@]12CC[C@H](O)CC1=CCC1C2CC[C@@]2(C)C1CC[C@@H]2OCc1ccccc1 (stereo not given in full),-13%
N#Cc1cc2c(nc1SCC(=O)Nc1cc(Cl)ccc1Cl)C1CCN2CC1,-3%
COC(=O)C1=C(c2ccc(S(C)(=O)=O)cc2)C[C@@H]2CC[C@H]1N2C(=O)N1CCOCC1,-3%

# 3 entries from above, sorted by SMILES length, lowest first:
SMILES,VDR inhibitor
CCOC(=O)c1c(C)n(Cc2ccccc2)c2ccc(O)cc12,-14%
CC[C@@H](CO)C1CC2NC3CC4(c5ccccc5N(C)[C@@H]24)C(O)C31 (stereo not given in full),3%
COc1ccccc1C(=O)Nc1ccc2c(c1)CC1(C(=O)N(C)C(=O)N(C)C1=O)C1CCCN21 (stereo not given),-22%

# The main list resumes, repeating the 2 entries before the break.
SMILES,VDR inhibitor
N#Cc1cc2c(nc1SCC(=O)Nc1cc(Cl)ccc1Cl)C1CCN2CC1,-3%
COC(=O)C1=C(c2ccc(S(C)(=O)=O)cc2)C[C@@H]2CC[C@H]1N2C(=O)N1CCOCC1,-3%
CCC(C)n1c(O)c(/C=N/NC(=O)c2ccncc2)c(=O)[nH]c1=S (stereo not given),-5%
Cc1cc(=O)oc2cc(OCC(=O)N3CCN(Cc4ccccc4)CC3)ccc12,-15%
CN1CCN(Cc2cc(C(C)(C)C)c(O)c(C(C)(C)C)c2)CC1,-29%
Cc1cc(C)n2nc(SC(C)C(=O)N3CCC4(CC3)OCCO4)nc2n1 (stereo not given),-8%
O=C(O)[C@H]1C[C@@H]1[C@H](NP(=O)(c1ccccc1)c1ccccc1)c1ccccc1,-2%
O=[N+]([O-])c1c(Cl)c(Cl)c(Cl)c(Cl)c1Cl,-12%
CN1C2CCC1/C(=C/c1ccccn1)C(=O)/C2=C\c1ccccn1,28µM*
Cc1ccc(C(C)(C)C)c(OCC(=O)Nc2ccc(Cl)cc2C(=O)c2ccccc2)c1,-1%
N#Cc1c(Cl)c(Cl)c(Cl)c(C#N)c1Cl,0.79µM*
COC(=O)C1=C(c2cccc(OC)c2OC)C[C@@H]2CC[C@H]1N2C,29%
CCOC(=O)[C@@]12C(=O)C(=O)N[C@]1(c1ccccc1)C1OCCCC12 (stereo not given in full),9%
Cc1cc(OCC(=O)OC(C)(C)C)c2c3c(c(=O)oc2c1)CCC3,10%
COc1ccc(CCNCc2ccncc2)cc1OC,4%
CC(=O)O[C@H]1CC[C@]2(C=O)C3CC[C@]4(C)[C@@H](C5=CC(=O)OC5)CC[C@]4(O)C3CC[C@]2(O)C1 (stereo not given in full),-3%
COc1ccccc1N=Cc1c(O)n(C)c(=O)n(C)c1=O,0%
O=S(=O)(NC1CCCC1)OCC(Cl)(Cl)Cl,-18%
Cc1ccc(N=Cc2c(O)n(C)c(=O)n(C)c2=O)cc1,-16%
Nc1nnc(P(c2ccccc2)c2ccccc2)s1,17%
COc1ccc2c(C)c(CCC(=O)N3C[C@H]4C[C@@H](C3)c3cccc(=O)n3C4)c(=O)oc2c1,-11%
COc1ccc(-c2nc(NC(=O)Cn3c(=O)oc4ccccc43)sc2C)cc1,52%[activator]
COC(=O)C1=C(c2ccc(F)cc2OCc2ccccc2)C[C@@H]2CC[C@H]1N2C(=O)NCc1ccc(N(C)C)cc1,10%
CN1C2c3ccccc3C3C4c5ccccc5C(C31)C(C2[N+](=O)[O-])N4C (stereo not given),-15%
CN(C)C(=O)O/N=C(\N)COc1ccc(C(C)(C)C)cc1,2%
CN(C)CC1CCCCC1OC(=O)Cc1ccc(Cl)c([N+](=O)[O-])c1 (stereo not given),-9%
O=c1nc(/C=C/c2ccc(Cl)cc2Cl)cc(C(F)(F)F)[nH]1,10µM*

# Following part
SMILES,VDR inhibitor
O=Cc1c(C(=O)O)n(Cc2ccccc2F)c2ccccc12,2%
CC[C@]1(O)CC(O[C@@H]2CC(N(C)C)C(O)C(C)O2)c2c(cc3c(c2O)C(=O)c2c(O)ccc(O)c2C3=O)C1C(=O)OC (stereo not given in full),-24%
CNC(=S)N1CC2CC(C1)c1cccc(=O)n1C2 (stereo not given),26%
Cc1nnc2ccc(-c3cccc(C(F)(F)F)c3)nn12,-22%&-1%
CN1CC(CO)=C[C@H]2c3cccc4[nH]cc(c34)C[C@H]21,u
C[C@]12CCC3C(CC[C@@H]4C[C@H](O)CC[C@]34C)C1CCC2=O (stereo not given in full),-10%
C=CCN1CCC2(C)c3cc(O)ccc3CC1C2C (stereo not given),9%
COC(=O)c1[nH]c2ccc(C)cc2c1NC(=O)Oc1ccccc1,35%[activator]
CC(=O)N1N=C2C3CCN(CC3)C2C1c1ccc(Br)cc1 (stereo not given),-6%
COC(=O)C(O)(c1ccc(NC(=O)c2cccs2)cc1)C(F)(F)F (stereo not given),-10%
COP(=O)(OC)C(O)C(Cl)(Cl)Cl (stereo not given),1%
CN(C)CCN(CC1CCCN(Cc2ccccc2F)C1)C(=O)Cc1ccccc1F (stereo not given),-27%
COc1ccc(NC(C)=O)cc1NC(=O)c1cccn(Cc2ccccc2)c1=O,4%
O=C(Oc1ccccc1)N1CCC[C@@]2(CCN(Cc3cc(C(F)(F)F)cc(C(F)(F)F)c3)C2)C1,u
Cc1ccc(/C=C2/C(=O)NC(=O)N(CCc3ccc(F)cc3)C2=O)s1,u
C=C1[C@@H]2CC[C@H]3[C@@]4(C)C[C@@H](O[C@@H]5O[C@H](CO)[C@H](OS(=O)(=O)O)[C@@H](OS(=O)(=O)O)[C@@H]5OC(=O)CC(C)C)C[C@@H](C(=O)O)[C@H]4CC[C@@]3(C2)[C@H]1O,-3%
Cc1ccsc1C(=O)C1CCCN(Cc2cc3ccccc3o2)C1 (stereo not given),-3%
O=C(O)CCCc1ccc(N(CCCl)CCCl)cc1,u
CCN1CCN(c2ccc(NC(=O)C(C)C)cc2Cl)CC1,8%
CCC(C)/C=C(C)/C=C/C1=CC2=C(Cl)C(=O)C(C)(OC(C)=O)C(=O)C2=CO1 (stereo not given),-16%
Cc1cccc(CN2C(=O)CN=C(c3ccccc3)c3ccccc32)c1,-7%
Cc1oc2ccc(OC(=O)N(C)C)cc2c1C(=O)OC(C)C,-12%
CCOP(=S)(OCC)c1ccc(N(C)C)cc1,-7%
CNCC(O)c1cccc(OC(=O)c2ccccc2C)c1 (stereo not given),-22%
CCN(CC)C(=O)Cn1cc(/C=C2\C(=O)NC(=O)N(c3ccccc3F)C2=O)c2ccccc21,79µM*

# Overlap with the part before: 4 entries, followed by the next part.
SMILES,VDR inhibitor
Cc1oc2ccc(OC(=O)N(C)C)cc2c1C(=O)OC(C)C,-12%
CCOP(=S)(OCC)c1ccc(N(C)C)cc1,-7%
CNCC(O)c1cccc(OC(=O)c2ccccc2C)c1 (stereo not given),-22%
CCN(CC)C(=O)Cn1cc(/C=C2\C(=O)NC(=O)N(c3ccccc3F)C2=O)c2ccccc21,79µM*
COc1ccccc1C(=O)C1CCCN(Cc2cnc(C)s2)C1 (stereo not given),17%
CCCCn1c(O)c(/C=C2\C=Nc3ccccc32)c(=O)[nH]c1=O,53%[activator]
CCC12CN3CCN(CC(C3)/C1=N/NC(N)=O)C2,4%
O=c1cc(C2CCNCC2)[nH][nH]1,-10%
CC12Cc3cnoc3C=C1CCC1C2CCC2(C)C1CCC2(C)O (stereo not given),-8%
O=c1[nH]c(=S)n(C2CC2)c(O)c1/C=N/Nc1ccccc1,-23%
CCC(C)n1c(=O)[nH]c(C)c(Br)c1=O (stereo not given),12%
C[C@]12CCC3C(C(=O)C[C@H]4C[C@@H](O)CC[C@]34C)C1CCC2=O (stereo not given in full),-13%
CN1CCCC2(CCN(C(=O)c3ccco3)CC2)C1,1%
CCOC(=O)C1CCN(Cc2ccc(Cl)nc2)CC1,-1%
c1nc[n]([Sn]([CH]2CCCCC2)([CH]2CCCCC2)[CH]2CCCCC2)n1,50µM*
C[C@H]1CCC/C=C/C2C[C@H](O)CC2[C@H](O)/C=C/C(=O)O1 (stereo not given in full),10%
C=CCN1CC[C@]23c4c5ccc(O)c4O[C@@H]2/C(=N/N=C2\CC[C@@]4(O)C6Cc7ccc(O)c8c7[C@@]4(CCN6CC=C)[C@@H]2O8)CC[C@@]3(O)C1C5,1%
CC[C@H](C)[C@H](NC(=O)[C@@H](N)Cc1ccc(O)cc1)C(=O)NCC(=O)N[C@@H](CO)C(=O)N[C@@H](CCCN=C(N)N)C(N)=O,9%
Cc1cc(=O)oc2c1c(C)nn2-c1nn[nH]n1,u
Cn1cc(C=C2C(=O)NC(=O)NC2=O)c2ccccc21,-7%
CN1CCN(Cc2cn(C)c3ccccc23)CC1CCO (stereo not given),7%
CC(=O)Nc1ccc([As](=O)(O)c2ccc([N+](=O)[O-])cc2)cc1,16%
CN1CCC2(CC1)c1ccccc1-c1ccccc12,1%
CC(C)C[C@H]1C(=O)N2CCC[C@@H]2[C@]2(O)O[C@](NC(=O)[C@H]3C=C4c5cccc6[nH]c(Br)c(c56)C[C@H]4N(C)C3)(C(C)C)C(=O)N12,-13%
CCOCC(=O)NC1CCSC1=O (stereo not given),13%
COc1ccccc1-n1c(-c2ccccc2F)nc2ccccc2c1=O,13%
COc1ccc(CC2C(=O)NC(=O)N(c3ccccc3)C2=O)c(OC)c1 (stereo not given),4%
Cc1cc(OCc2nn[nH]n2)c2c3c(c(=O)oc2c1)CCC3,3%
CC(=O)c1c(C)n(CCCOC(C)C)c2ccc(O)cc12,-1%

# Next records
SMILES,VDR inhibitor
Cc1ccc(OCC(=O)N2CCN(C3CCC(c4ccccc4)CC3)CC2)cc1 (stereo not given),-3%
O=c1[nH]c(=S)n(Cc2ccc(F)cc2)c(O)c1C=NCc1ccc2c(c1)OCO2,6%
COC(=O)C1=C(c2ccc(F)cc2OCc2ccccc2)C[C@@H]2CC[C@H]1N2C(=O)N1CCCC1,-3%
O=C(COC(=O)c1ccc(O)cc1)Nc1ccc(Cl)cc1C(=O)c1ccccc1,-13%
CNC(=S)NC1CC2CCCC(C1)N2CC(C)C (stereo not given),-11%
C[C@@H]1CC[C@@]2(NC1)O[C@H]1C[C@H]3[C@@H]4CC=C5C[C@@H](O)CC[C@]5(C)[C@H]4CC[C@]3(C)[C@H]1[C@@H]2C,-4%
O=C(CCC(=O)N1CC2C[C@@H](C1)Cn1c2cccc1=O)NCCc1ccccc1,5%
O=Cc1c(C(=O)O)n(Cc2ccc(F)cc2Cl)c2ccccc12,-27%
CCOC(=O)c1ccccc1NC(=O)c1c(O)[nH]c(=S)[nH]c1=O,2%
CCCNC(=O)N1[C@H]2CC[C@@H]1C(C(=O)OC)=C(c1cc3ccccc3o1)C2,23%
COc1ccc(N2C(=O)CS(=O)C(c3ccccc3)C2=O)cc1 (stereo not given),35µM*
COC(=O)C1=C(c2ccccc2)C[C@@H]2CC[C@H]1N2C(=O)NCc1ccc(C(F)(F)F)cc1,-1%

# A stretch taken from the entries so far, as a working copy:
SMILES,VDR inhibitor
CCCCn1c(O)c(/C=C2\C=Nc3ccccc32)c(=O)[nH]c1=O,53%[activator]
CCC12CN3CCN(CC(C3)/C1=N/NC(N)=O)C2,4%
